nsP2pro inh: blocks chikungunya virus nsP2 protease peptide cleavage. FRET peptide cleavage, nsP2pro, fluorescence 1 h. Q8JUX6. hit rate 1.1% among 31,000. Potency, µM (titrated, usually from 24.9 µM), for the others: at the top dose activity change, negative = inhibition, actives largely listed as inhibitors. AID 1964107; active means well fitted inhibition curve with a large enough effect; inconclusive means small, poorly fitted or top-dose-only effect; inactive means no such curve, though single readings can be large or run the other way; note: nearly all actives have a fitted effect of over 60% in size; a reference inhibitor and vehicle were the controls
Target sequence (Q8JUX6 whole entry, looked up): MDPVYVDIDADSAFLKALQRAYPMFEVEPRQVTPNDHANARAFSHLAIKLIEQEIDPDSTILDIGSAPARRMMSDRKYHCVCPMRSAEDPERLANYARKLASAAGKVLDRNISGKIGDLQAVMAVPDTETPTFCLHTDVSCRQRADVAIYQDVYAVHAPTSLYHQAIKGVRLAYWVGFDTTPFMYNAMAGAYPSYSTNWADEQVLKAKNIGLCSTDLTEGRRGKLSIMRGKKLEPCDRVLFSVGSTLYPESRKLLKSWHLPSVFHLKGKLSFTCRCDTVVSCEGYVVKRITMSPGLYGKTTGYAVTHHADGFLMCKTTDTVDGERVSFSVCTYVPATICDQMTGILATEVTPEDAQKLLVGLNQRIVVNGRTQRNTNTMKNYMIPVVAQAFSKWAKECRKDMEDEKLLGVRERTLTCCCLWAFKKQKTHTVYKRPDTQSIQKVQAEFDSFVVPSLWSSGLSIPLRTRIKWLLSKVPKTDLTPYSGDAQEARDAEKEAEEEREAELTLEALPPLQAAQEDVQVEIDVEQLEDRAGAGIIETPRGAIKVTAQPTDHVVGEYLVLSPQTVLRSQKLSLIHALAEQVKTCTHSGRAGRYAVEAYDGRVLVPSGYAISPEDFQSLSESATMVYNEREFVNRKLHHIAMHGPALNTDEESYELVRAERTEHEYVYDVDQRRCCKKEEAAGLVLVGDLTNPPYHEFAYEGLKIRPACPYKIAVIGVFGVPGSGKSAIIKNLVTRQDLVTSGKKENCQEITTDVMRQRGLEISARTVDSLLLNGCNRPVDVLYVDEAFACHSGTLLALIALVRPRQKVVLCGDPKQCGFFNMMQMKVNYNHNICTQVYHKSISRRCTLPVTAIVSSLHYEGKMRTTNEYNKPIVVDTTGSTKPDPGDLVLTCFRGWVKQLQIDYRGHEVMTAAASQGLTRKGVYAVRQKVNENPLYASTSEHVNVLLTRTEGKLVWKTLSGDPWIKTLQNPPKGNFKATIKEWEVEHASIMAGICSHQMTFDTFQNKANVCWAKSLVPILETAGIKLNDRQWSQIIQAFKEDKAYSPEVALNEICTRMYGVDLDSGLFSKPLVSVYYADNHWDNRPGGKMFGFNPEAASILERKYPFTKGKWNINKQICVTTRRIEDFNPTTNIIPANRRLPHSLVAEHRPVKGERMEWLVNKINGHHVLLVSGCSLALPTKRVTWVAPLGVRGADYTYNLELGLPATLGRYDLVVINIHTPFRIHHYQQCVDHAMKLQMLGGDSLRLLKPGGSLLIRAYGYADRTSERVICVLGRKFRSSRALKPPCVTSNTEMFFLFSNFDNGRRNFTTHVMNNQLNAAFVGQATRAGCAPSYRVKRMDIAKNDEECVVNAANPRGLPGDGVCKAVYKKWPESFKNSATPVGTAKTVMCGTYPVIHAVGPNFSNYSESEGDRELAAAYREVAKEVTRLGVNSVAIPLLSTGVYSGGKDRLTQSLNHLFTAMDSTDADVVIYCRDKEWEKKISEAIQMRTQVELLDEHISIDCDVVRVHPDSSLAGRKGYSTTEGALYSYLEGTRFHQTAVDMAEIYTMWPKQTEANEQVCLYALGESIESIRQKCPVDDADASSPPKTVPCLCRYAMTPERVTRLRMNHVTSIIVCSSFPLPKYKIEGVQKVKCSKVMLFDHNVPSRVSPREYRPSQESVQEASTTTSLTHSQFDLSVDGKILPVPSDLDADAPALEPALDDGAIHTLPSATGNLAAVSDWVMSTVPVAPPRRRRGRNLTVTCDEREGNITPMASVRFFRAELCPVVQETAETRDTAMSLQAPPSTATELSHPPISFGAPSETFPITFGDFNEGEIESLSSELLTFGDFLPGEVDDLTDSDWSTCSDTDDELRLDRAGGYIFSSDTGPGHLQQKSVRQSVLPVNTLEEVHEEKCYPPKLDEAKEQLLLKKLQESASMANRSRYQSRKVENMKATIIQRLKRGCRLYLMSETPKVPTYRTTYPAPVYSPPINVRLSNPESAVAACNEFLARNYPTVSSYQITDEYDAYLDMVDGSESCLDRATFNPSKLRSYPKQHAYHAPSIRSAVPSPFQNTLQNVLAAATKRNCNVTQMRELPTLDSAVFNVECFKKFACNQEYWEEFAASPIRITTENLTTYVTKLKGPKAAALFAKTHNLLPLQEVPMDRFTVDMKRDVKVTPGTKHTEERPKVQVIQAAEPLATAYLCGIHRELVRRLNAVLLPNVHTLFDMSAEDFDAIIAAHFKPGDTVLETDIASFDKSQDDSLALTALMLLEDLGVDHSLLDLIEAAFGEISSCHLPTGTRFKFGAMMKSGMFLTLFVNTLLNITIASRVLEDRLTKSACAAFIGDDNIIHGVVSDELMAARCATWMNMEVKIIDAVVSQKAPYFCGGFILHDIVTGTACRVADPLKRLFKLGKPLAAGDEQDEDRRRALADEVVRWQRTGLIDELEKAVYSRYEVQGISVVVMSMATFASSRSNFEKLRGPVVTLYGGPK
Starred values were filed as active, the others as inactive; i = inactive; ? = inconclusive; & = joins results of further samples; [ ] = another dose, or the depositor's remark. % is set by controls: 0 for no effect and ±100 for the full control effect; potency is the fitted concentration of half-maximal effect. This is a subset. The share of hits here may be higher or lower than overall.

SMILES	nsP2pro inh
O=C(NCc1ccc2c(c1)OCO2)c1csc(N2CCN(c3ccc(F)cc3)CC2)n1	i
CC(C)COC(=O)OCN1C(=O)CN(CCN2CC(=O)N(COC(=O)OCC(C)C)C(=O)C2)CC1=O	43.4%[activator]
O=C(NCC1CCOCC1)Nc1c(F)cccc1F	3.4%
O=C(C[C@@H]1C[C@H]2O[C@H](CNC3CCOCC3)[C@@H](O)[C@H]2O1)N1CCC(F)(F)C1	-15.9%[39.2 µM]
CCCCOc1ccc(C(C)NC(=O)CN2C(=O)CSc3ccc(S(=O)(=O)N4CCOCC4)cc32)cc1 (configuration not stated)	-15.3%
Clc1ccc2ncc(-c3cccc(NC4CCNC4)n3)n2c1 (configuration not stated)	-4.2%
CC1(C)CCc2cc(S(=O)(=O)N3CCN(S(=O)(=O)c4c(F)cccc4F)CC3)ccc2O1	-4.2%
COc1ccc(-c2ccc3ncnc(NCc4nc(C)cs4)c3c2)cc1OC	i
COC(=O)C12CCC(C)C(C)C1C1=CCC3C4(C)CCC(OC(C)=O)C(C)(C)C4CCC3(C)C1(C)CC2 (configuration not stated)	0.4%[10 µM]
CS(=O)(=O)c1ccccc1-c1csc(N2CCC(C(N)=O)CC2)n1	-18.7%
CCCS(=O)(=O)c1nc(S(=O)(=O)c2ccc(C)cc2)c(N(CC)CC)s1	-11.7%
CC(=O)O[C@@H]1C[C@]2(C)[C@@]3(CCC4[C@@]5(C)CC[C@H](O[C@@H]6O[C@H](C(=O)O)[C@@H](O)[C@H](O[C@@H]7O[C@H](CO)[C@H](O)[C@H](O)[C@H]7O[C@@H]7O[C@@H](C)[C@H](O)[C@@H](O)[C@H]7O[C@@H]7OC[C@](O)(CO)[C@H]7O)[C@H]6O[C@@H]6O[C@H](CO)[C@H](O)[C@H](O)[C@H]6O)C(C)(C)C5CC[C@]42C)O[C@@H](O)[C@]12C3CC(C)(C)[C@@H](OC(=O)/C=C/c1ccc(O)c(O)c1)[C@@H]2OC(=O)/C=C/c1ccccc1 (some centres not stated)	76.3%[activator][5.1 µM]
COc1ccc(-c2cc3c(=O)n(CCNC(=O)c4ccsc4)ccn3n2)cc1	i
Cc1ccc(C#Cc2cc(-c3nn(-c4nc(C(=O)O)cs4)c(CC4CC4)c3Cc3ccc(S(N)(=O)=O)c(F)c3)ccc2F)o1	3.98µM*
Cn1ncc(N2CCC(C(=O)N3CCC(C(N)=O)(N4CCCCC4)CC3)C2)cc1=O (configuration not stated)	-1.0%
CC[C@H]1CN2CC[C@H]1C[C@@H]2CN(Cc1cccs1)Cc1cccs1	-3.1%[39.2 µM]
CCc1ccccc1NC(=O)Cc1ccc(-n2c(C)nc3cccnc32)cc1	-17.3%
CCOC(=O)C1=C(CS(=O)(=O)c2ccc(F)c(C)c2)NC(=O)NC1c1ccccc1OC (configuration not stated)	-2.7%
COc1ccc(-c2nnc(C[C@@H]3C[C@@H](C(C)C)[C@H](CNCc4ccncc4)C=C3C)o2)cc1	i
O=C(OCc1cc(=O)n2c3c(sc2n1)CCCC3)c1cccc(NC(=O)c2ccccc2F)c1	-12.1%
CCOC(=O)C1CCN(C(=O)c2ccc3nccn3c2)CC1	i
COc1ccc(Nc2cnc3ccc(-c4ccc(F)cc4)nn23)cc1	62.3%[activator][39.2 µM]
COc1ccccc1NC(=O)Cn1c(=O)n(Cc2ccccc2)c(=O)c2c3c(sc21)CN(C(C)=O)CC3	-13.6%
CC(=O)N1c2ccc(-c3ccc(C(=O)O)cc3)cc2[C@H](Nc2ccc(Cl)cc2)C[C@@H]1C	1.5%&-12.5%
C=C1C(=O)O[C@@H]2/C=C(\C)CC/C=C(\C)CC[C@@H]12	?

Further results
SMILES	nsP2pro inh
O=C1c2ccccc2NC(c2ccc(-c3cccc([N+](=O)[O-])c3)o2)N1O (configuration not stated)	?
COc1cc(OC)c2c(c1)OC(=O)CC2c1ccc2c(c1)OCO2 (configuration not stated)	-7.8%[39.2 µM]
CC(C)(C)C(=O)C(Oc1ccc(Cl)cc1)n1ccnc1 (configuration not stated)	24.3%&18.4%
CCc1ccccc1NC(=O)CSc1ncc(S(=O)(=O)c2ccc(C(C)C)cc2)c(N)n1	-3.9%
O=C1CCc2cc(S(=O)(=O)Nc3cccc(F)c3)ccc2N1	-8.1%
COc1cn(CC(=O)Nc2ccc(F)cc2)c(CN2CCCCC2)cc1=O	-13.1%
COCCCNC(=O)c1cc2c(-c3cccc(OC)c3)nn(C)c2s1	4.5%
Cc1ccc(CNC(=O)Cn2c(N3CCCCC3)nc(C)c(C)c2=O)cc1	2.0%
Cc1ccc(S(=O)(=O)c2cn(Cc3ccccc3)c3cc(N4CCOCC4)c(F)cc3c2=O)cc1	-8.8%
COc1ccccc1-c1no[n+]([O-])c1C#N	0.2%
Fc1ccc(-c2cccc(CN3CCOCC3)c2)c(Cl)c1	2.4%
Cc1ccsc1CNc1ncnc2ccc(-c3ccc4c(c3)OCO4)cc12	4.2%
CCCC1=Nc2cc(C(=O)N3CCC(C(=O)OCC)CC3)ccc2Sc2ccccc21	-3.7%
CCC(=O)OCCCNc1nc(-c2ccc(Cl)cc2)nc2ccccc12	-13.4%
Cc1ccsc1C(=CCCN1CCC[C@@H](C(=O)O)C1)c1sccc1C	-15.2%
N[C@@H](CC(=O)O)C(=O)Nc1ccc(Cl)cc1C(=O)c1ccc[nH]1	-2.7%
O=C(CCCc1ccccc1)Nc1ccc(OC2CCNCC2)nc1	-22.0%
O[C@@H]1C[C@@H](c2nc(-c3cnccn3)no2)N(Cc2cccs2)C1	?
Cn1c(=O)c2c(SCC(=O)NCc3ccco3)nc(-c3ccccc3Cl)nc2n(C)c1=O	-21.5%
Fc1ccccc1-c1nc(-c2cccc(-c3nn[nH]n3)c2)no1	i
CCc1cccc(NC(=O)c2sc3nc[nH]c(=O)c3c2C)c1	-4.8%
COc1ccc(CCNC(=O)c2cnc3sc(N4CCOCC4)nn3c2=O)cc1	-14.0%
CCOc1ccccc1N1CC(c2nc3ccccc3n2CCOc2ccc(C(C)(C)C)cc2)CC1=O (configuration not stated)	-15.6%
CCOc1ccc(NC(=O)CC2C(=O)N(c3ccc(OC)cc3)C(=O)N2C2CCCCC2)cc1 (configuration not stated)	-11.9%
COc1cc(NS(=O)(=O)c2ccc(C)cc2)c(C(=O)Nc2nc(-c3ccccc3)cs2)cc1OC	i

The list goes on:
SMILES	nsP2pro inh
O=C(Cn1c(=O)c2sccc2n(CC(=O)Nc2ccc(Cl)cc2Cl)c1=O)NCCc1ccccc1	-14.8%
COCCC1(NC(=O)C2CC2)CCN(C(=O)C2CC2)CC1	i
CC(C)C(=O)NCC(c1ccc2c(c1)OCO2)N1CCN(c2ccccc2F)CC1 (configuration not stated)	-0.3%
CN(C)[C@H]1CCN(c2cccc(Nc3nn4c(=O)c5ccccc5nc4s3)c2)C1	i
CC(C)C1=CCC(C)(O)C(OC2OC(CO)C(O)C(O)C2O)C1 (configuration not stated)	140.5%[activator]
CNC(=O)c1cccc(-c2ccccc2COc2ccc(CCOC)cc2)n1	i
CC(=O)NC1CCN(Cc2cn(-c3ccc(C)cc3)nc2-c2cccc(C)c2)C1 (configuration not stated)	i
CCCCc1ccc(NC(=O)c2cc3c(=O)n4ccccc4nc3n2C)cc1	-13.4%
CC(C)C1(O)C=C2C(=O)CC3C(C)(C(=O)O)CCCC3(C)C2CC1 (configuration not stated)	-2.4%
CC1(C)C(=O)N(CCOc2ccccc2)[C@H]2CN(CC3CCOC3)C[C@H]2[S+]1(=O)[O-] (some centres not stated)	i
COc1ccc(C(=O)O)cc1COc1ccc(NC(C)=O)cc1	i
COC[C@@H]1OC(=O)/C(=C\N(C)CCCN(C)C)C2=C(O)C(=O)C3=C([C@@H](OC(C)=O)C[C@@]4(C)[C@@H]3CC[C@@H]4O)[C@@]21C	-10.7%
Cc1nn(-c2ccc(Cl)cc2)c2nc(-c3cccnc3)cc(C(F)(F)F)c12	-15.9%
COc1ccc(NC(=O)C2=C(C)NC(Nc3nc4ccccc4o3)=NC2c2ccccc2Br)cc1 (configuration not stated)	-10.7%
Cc1occc1C(=O)n1ccnc1	-6.6%
CN(CC(O)CO)C(=O)c1c(I)c(NC(=O)C(CO)CO)c(I)c(C(=O)N(C)CC(O)CO)c1I (configuration not stated)	-7.4%
COC(=O)CNC(=O)c1cc(-c2cnccc2Cl)c2cccn2n1	?
COc1ccc(-c2cccc(NS(=O)(=O)c3cc(C)c(Cl)cc3C)c2)nn1	-8.2%
CCc1ccc(Oc2c(C(F)(F)F)oc3c(CN4CCCC(C)C4)c(O)ccc3c2=O)cc1 (configuration not stated)	-17.8%
CN(C(=O)c1nn(C)c2c1COc1ccccc1-2)c1cccc(C(F)(F)F)c1	?
Cc1ccc(-c2ccc(=O)n(CC(=O)N(C)CCN(C)C)n2)cc1	-2.9%
CC(=O)O[C@@H]1[C@H]2[C@@H](OC(=O)c3ccccc3)[C@@H](C)C[C@]2(O)[C@H](OC(C)=O)[C@@]2(C)[C@@H]3CC(C)(C)C(=O)[C@]3(OC(C)=O)C[C@@]12C	-3.0%[10 µM]
COc1ccc(NC(=O)c2cc(C(C)=O)n3ccccc23)cc1Cl	13.4%
COc1ccc(CCN2C(=O)N(c3ccc(F)cc3)C(=O)C2CC(=O)Nc2ccc(F)c(F)c2)cc1 (configuration not stated)	8.5%
O=c1cc(N2CCOCC2)oc2c(NCc3ccc(F)cc3)nccc12	-7.8%[39.2 µM]

Next section:
SMILES	nsP2pro inh
CCOc1cccc2sc(NC(=O)CS(=O)(=O)c3ccc(C)cc3)nc12	-16.1%
COc1ccc(-c2nc3cc(C)ccn3c2NC(=O)c2ccc(C)c(C)c2)cc1	-0.1%
Cc1cn2nnc(C(=O)NC3CCC(C)CC3)c2c(=O)[nH]1 (configuration not stated)	-9.5%
Cc1cccc(-n2ccnc2SCC(=O)Nc2ccc(F)cc2F)c1C	-7.9%
COc1ccc(-n2cccn2)c(CN2CC[C@H](CO)[C@H](O)C2)c1	4.3%
CCc1ccc(NC(=O)CCc2nnc3n(C)c(=O)c4sccc4n23)cc1	-23.1%
COCC1CN(C)CC12CCN(C(=O)CCc1ccc(OC)cc1)CC2 (configuration not stated)	1.3%
Cc1ccc(CNC(=O)CCCCCn2c(=O)[nH]c3ccccc3c2=O)cc1	-28.3%
CCc1cccc(-n2nnc(-c3nc(-c4ccccc4Cl)no3)c2N)c1	-27.5%
CCOc1ccc(CCNC(=O)c2nc(-c3cccc(F)c3)n3c2CCCCC3)cc1OCC	-10.6%
CCOc1cc(C2CC(=O)Nc3c2c(=O)nc(SCc2cccc(Cl)c2)n3C)ccc1O (configuration not stated)	-16.3%
O=C(Nc1ncc([S+](=O)([O-])N2CCOCC2)s1)c1cccc(Br)c1	i
CNC(=O)[C@@H]1C[C@H](n2cc(CNS(=O)(=O)c3cc(C)ccc3F)nn2)CN1	2.7%
CC(=O)O[C@H]1[C@H]2[C@@H](OC(=O)Cc3ccccc3)[C@@H](C)C[C@]2(OC(C)=O)C(=O)/C(C)=C/[C@@H]2[C@H](CC[C@@]13CO3)C2(C)C	?
c1ccc(CNCc2nnc(-c3cc4ccccc4[nH]3)o2)cc1	0.2%
COc1ccc([C@@H]2Sc3ccccc3N(CCN(C)C)C(=O)[C@@H]2OC(C)=O)cc1	-2.6%[10 µM]
CC(NCc1ccc2c(c1)n(C)c(=O)n2C)c1ccccc1 (configuration not stated)	-11.5%
CC(=O)c1cccc(NS(=O)(=O)c2ccc3[nH]c4c(c3c2)CCCCCC4)c1	?
Cc1ccc(CNC(=O)c2ccc3c(c2)c(C)c(C)n3Cc2ccccc2)o1	?
COc1ccccc1OC1(C(=O)O)CCN(Cc2cnn(C)c2C)CC1	4.6%
O=C(Cc1ccc(Cl)cc1)NCC(c1cccs1)S(=O)(=O)c1ccccc1 (configuration not stated)	-1.8%
COc1ccc(C(=O)NCC(c2cccnc2)N2CCN(c3ccccc3F)CC2)cc1OC (configuration not stated)	-20.1%
C=CCNc1nnc(-c2cccc3ccccc23)o1	?
COc1cc(NS(=O)(=O)c2cnc(N)nc2)cc(OC)c1	-29.2%
O=C(Nc1ccccc1)c1cnc2c(c1)N(C(=O)Cc1ccc(O)cc1)CCC2	-0.6%[39.2 µM]
Cc1ccc(C)c(Nc2cc(C(=O)NC3CCCCC3)c3ccccc3n2)c1	-25.5%
C=C[C@@](C)(O)CC[C@@H]1[C@@]2(C)CCCC(C)(C)[C@@H]2CC[C@@]1(C)O	0.6%&-20.0%
CCCCc1nc2ccccc2c(=O)n1-c1cccc(OC)c1	-17.1%

In a second layout: entries from further up.
| canonical_smiles | nsP2pro inh |
| --- | --- |
| COc1ccc([C@@H]2Sc3ccccc3N(CCN(C)C)C(=O)[C@@H]2OC(C)=O)cc1 | -2.6%[10 µM] |
| CC(NCc1ccc2c(c1)n(C)c(=O)n2C)c1ccccc1 (configuration not stated) | -11.5% |
| CC(=O)c1cccc(NS(=O)(=O)c2ccc3[nH]c4c(c3c2)CCCCCC4)c1 | ? |
| Cc1ccc(CNC(=O)c2ccc3c(c2)c(C)c(C)n3Cc2ccccc2)o1 | ? |
| COc1ccccc1OC1(C(=O)O)CCN(Cc2cnn(C)c2C)CC1 | 4.6% |
| O=C(Cc1ccc(Cl)cc1)NCC(c1cccs1)S(=O)(=O)c1ccccc1 (configuration not stated) | -1.8% |
| COc1ccc(C(=O)NCC(c2cccnc2)N2CCN(c3ccccc3F)CC2)cc1OC (configuration not stated) | -20.1% |
| C=CCNc1nnc(-c2cccc3ccccc23)o1 | ? |
| COc1cc(NS(=O)(=O)c2cnc(N)nc2)cc(OC)c1 | -29.2% |
| O=C(Nc1ccccc1)c1cnc2c(c1)N(C(=O)Cc1ccc(O)cc1)CCC2 | -0.6%[39.2 µM] |
| Cc1ccc(C)c(Nc2cc(C(=O)NC3CCCCC3)c3ccccc3n2)c1 | -25.5% |
| C=C[C@@](C)(O)CC[C@@H]1[C@@]2(C)CCCC(C)(C)[C@@H]2CC[C@@]1(C)O | 0.6%&-20.0% |
| CCCCc1nc2ccccc2c(=O)n1-c1cccc(OC)c1 | -17.1% |
